Six1-Eya2 inh: Six1/Eya2 interaction inhibition | activity change, % (concentration not given with the values) | AID 651725 | AlphaScreen GST-Six1/His-Eya2 binding, biochemical; active compounds read low; control for the full effect not named in the record | 360,000 compounds, 0.56% hits; in the data active = activity change below about -65%; inconclusive = about -30% to -65%; inactive = above about -30%; note: % is set by controls: 0 for no effect and ±100 for the full control effect
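AlphaScreen luminescence read after one hour at 37 °C in darkness. Pin-transferred compounds met GST-Six1 and His-Eya2 protein (5X stock 250 nM/500 nM) plus glutathione donor and Ni-chelate acceptor beads (5X, 50 ug/mL).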
CtBP-E1A blk: CtBP/E1A binding inhibition; AlphaScreen GST-E1A/His-CtBP binding, 1536-well; active compounds read low; control for the full effect not named in the record; activity change, % (test concentration not listed); 340,000 compounds, 0.49% hits; AID 651724; in the data active means activity change below about -65%; inconclusive means about -30% to -65%; inactive means above about -30%; note: % is set by controls: 0 for no effect and ±100 for the full control effect
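Protein mix (5X: 125 nM each GST-E1A, His-CtBP) was incubated with pinned compound 2 h at 37 deg C in dark, in 50 mM Tris pH 8.0 buffer with 300 mM NaCl. Glutathione donor and nickel acceptor beads followed; AlphaScreen signal read after 1 h.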
D2 PAM: potentiates the human D2 dopamine receptor allosterically; P14416; DiscoveRx D2 beta-arrestin cells, luminescence, 90 min; 100% = 57 uM dopamine signal; potentiation, % (concentration not given with the values); 360,000 compounds, 0.23% hits; active = potentiation of 50% or more; inconclusive = 30% to 50%; inactive = 30% or less;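 note: tested on top of an EC20 dose of dopamine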
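PathHunter D2 cells, attached overnight at 37 deg C, received compound in DMSO plus dopamine at EC20 (50 nM final) for 90 min at 37 deg C. Beta-arrestin recruitment was read as luminescence after 1 h with detection reagent at ambient temperature.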
TRPML1 agonist: human mucolipin-1 channel agonism | Q9GZU1 | TRPML1-expressing cells, Ca2+ dye fluorescence, FDSS; host cell line not named in the record; reference of the full effect not given here | activation, % (test concentration not listed) | 410,000 compounds, 0.12% hits; in the data active = activation above about 50%; inconclusive = about 30% to 50%; inactive = below about 30%; note: 0% is about no effect; the text of the record puts the active cut at 80%
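Cells: TRPML1-DL, 1X Tet inducer, ~16 h at 37 degrees C/5% CO2. Dye: ABD Ca8 no-wash + quencher, 45-90 min RT. Read: 10 s baseline, compound add, 110 s agonist phase; 54-4 EC80 (4uM final), 110 s antagonist phase.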
TRPML1 blocker: blocks the human TRPML1 channel; Q9GZU1; TRPML1-inducible cells, Ca2+ dye fluorescence, FDSS; active compounds read low; inhibition of EC80 agonist-evoked calcium signal; AID 624415; activity change, negative = inhibition, % (concentration not given with the values); 390,000 compounds, 0.02% hits; in the data active means activity change below about -50%; inconclusive means about -30% to -50%; inactive means above about -30%;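 note: stimulus is agonist 54-4 at its EC80 concentration; % is set by controls: 0 for no effect and ±100 for the full control effect; the text of the record puts the active cut at -80%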
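Calcium fluorescence in TRPML1-DL cells induced overnight with Tet: a 110 s read after compound pin addition, then a 110 s antagonist read after challenge with 54-4 at 4 uM final (EC80).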
TRPV1 PAM: human TRPV1 potentiation | potentiation, % at 8.33 µM | 320,000 compounds, 0.02% hits | TRPV1-expressing cells, Fluo-8 calcium influx, capsaicin EC20 potentiation; host cell line not named in the record; control for the full effect not named in the record | Q8NER1; active means potentiation above 80%; inconclusive means 30% to 80%; inactive means below 30%; note: 0% is about no effect
Target sequence (Q8NER1 whole entry, looked up): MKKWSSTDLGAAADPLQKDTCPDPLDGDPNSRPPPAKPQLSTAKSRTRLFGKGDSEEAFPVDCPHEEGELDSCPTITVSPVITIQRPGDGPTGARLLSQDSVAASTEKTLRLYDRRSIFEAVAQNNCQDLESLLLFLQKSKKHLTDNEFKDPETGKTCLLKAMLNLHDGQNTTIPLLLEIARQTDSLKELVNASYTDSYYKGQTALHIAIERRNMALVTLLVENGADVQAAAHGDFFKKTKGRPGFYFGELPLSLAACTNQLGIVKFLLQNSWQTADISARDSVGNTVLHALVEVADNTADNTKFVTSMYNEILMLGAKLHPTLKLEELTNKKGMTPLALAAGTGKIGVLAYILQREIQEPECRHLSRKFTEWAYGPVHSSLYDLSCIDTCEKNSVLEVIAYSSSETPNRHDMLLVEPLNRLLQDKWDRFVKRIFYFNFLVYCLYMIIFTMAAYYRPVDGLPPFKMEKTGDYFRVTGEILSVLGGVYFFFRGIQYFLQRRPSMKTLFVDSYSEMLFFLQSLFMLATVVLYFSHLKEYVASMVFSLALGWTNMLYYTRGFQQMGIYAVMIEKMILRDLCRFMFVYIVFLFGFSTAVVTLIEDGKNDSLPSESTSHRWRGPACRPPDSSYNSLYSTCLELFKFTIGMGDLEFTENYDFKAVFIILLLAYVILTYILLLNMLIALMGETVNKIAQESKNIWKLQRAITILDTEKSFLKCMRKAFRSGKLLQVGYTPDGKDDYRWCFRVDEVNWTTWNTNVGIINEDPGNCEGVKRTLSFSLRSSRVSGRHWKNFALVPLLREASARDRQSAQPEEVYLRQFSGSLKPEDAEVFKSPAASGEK
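Fluo-8 calcium influx in TRPV1-expressing cells, kinetic read (ex 480/em 520 nm). Compound added and read 3 min for agonist activity, followed by capsaicin at EC20 final and 2 min further read for enhancement.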
The depositor's hits bear a star; u = inconclusive; x = not tested or not shown. Rows were taken by chance; 0.95% or so of the library scored in one or more.

SMILES	Six1-Eya2 inh	CtBP-E1A blk	D2 PAM	TRPML1 agonist	TRPML1 blocker	TRPV1 PAM
COc1ccc(S(=O)(=O)N2CCCCC2)cc1NC(=O)C1CC1	-2	-3	-3	-0.5	0	6
CCOC(=O)C1CCN(CC(O)COc2ccc(S(=O)(=O)N3CCCC3)cc2[N+](=O)[O-])CC1 (stereo unspecified)	-3	1	-34	-0.4	2	-1
CS(=O)(=O)N(CC(=O)Nc1ccc2c(c1)OCO2)c1ccc(Cl)cc1	-4	-2	-7	-0.1	7	-2
CCc1nnc(NC(=O)C2CC(=O)N(c3ccc(C)cc3)C2)s1 (stereo unspecified)	-1	0	2	0.3	-1	2
CCOC(=O)/C=C/C(=O)Nc1ccc(S(=O)(=O)Nc2cc(OC)nc(OC)n2)cc1	-2	4	-2	-0.7	14	x
COc1ccc(/C=C2\SC(=N)N(c3ccc(F)cc3)C2=O)cc1	7	-8	0	-1.5	4	1
CN(CC(=O)NCc1ccc(F)cc1)S(=O)(=O)c1ccc(Br)s1	-1	-1	-4	0.3	5	-5
Cc1ccc(S(=O)(=O)c2c(C)cc(C)[nH]c2=O)c(C)c1	6	x	-3	0.0	-19	12
O=C(OC(C(=O)NCc1cccs1)c1ccccn1)c1cccs1 (stereo unspecified)	3	1	3	0.9	-15	-9
COCCCNC(=O)CN(c1cc(C(F)(F)F)ccc1Cl)S(C)(=O)=O	-2	-1	-3	-0.4	6	11
COc1ccccc1C(=O)CSc1cccc[n+]1[O-]	1	6	-6	-0.8	6	-8
CN(C)C(=O)CNC(=O)C1CCCCC1	-1	1	1	6.5	5	0
O=C(CN1CCN(C(=O)C2CCCO2)CC1)Nc1cc(Cl)ccc1Cl (stereo unspecified)	20	3	-7	-0.1	5	16
C/C(=N\NC(=O)c1ccc2c(c1)OCO2)c1cccnc1	0	-13	-4	0.0	3	-7
CCOCCn1c(N2CCCC2)nc2c1c(=O)[nH]c(=O)n2C	6	x	0	-0.6	-19	1
NC(=O)COc1ccccc1/C=C1/SC(=O)N(CC(=O)N2CCc3ccccc3C2)C1=O	-4	-26	6	0.1	-2	11
CCNC(=O)N1c2ccc(OC)cc2C(C)=CC1(C)C	-14	-22	11	1.4	-2	0
Cc1nc2ccccc2n1CC(=O)OCC(=O)NC1CC1	5	9	-7	-0.9	-2	-8
CCOC(=O)C(Cc1ccccc1)NC(C)=O (stereo unspecified)	2	-2	-16	0.4	-9	-8
COc1ccc(/C=C(\C#N)C(=O)Nc2cccnc2)cc1	0	-14	-5	-1.1	-12	-3
CCCCCCC(=O)Nc1nc(C)c(-c2csc(Nc3cc(OC)ccc3OC)n2)s1	-13	-14	-6	-0.9	-2	0
COc1ccccc1NC(=O)NCc1nc(-c2ccc(C(F)(F)F)cc2)no1	5	3	-13	-0.4	-7	28
Cc1cc2cc(CNC(=O)c3ccc(S(=O)(=O)N4CCOCC4)cc3)ccc2[nH]1	-7	-5	-4	-0.5	13	7
O=C(NCCN1CCOCC1)c1cccc(S(=O)(=O)N(Cc2ccccc2)c2ccccc2)c1	5	6	-15	0.7	-7	19
OC(c1ccc2c(c1)OCO2)c1ncc(-c2ccccc2)[nH]1 (stereo unspecified)	-8	-13	-9	-0.6	x	x
CC1CCN(C(=O)CCC(=O)Nc2nnc(C(F)(F)F)s2)CC1	2	x	7	-0.4	1	-13
COC(=O)[C@H](CCSC)NC(=O)Nc1ccc(OC)cc1OC	-2	-1	-9	0.0	-9	0
CCOc1ccc(C2C(C#N)=C(N)Oc3cc(C)oc(=O)c32)cc1 (stereo unspecified)	1	1	-6	0.2	44	2
Cc1c(Cl)cccc1NC(=O)C1Cc2ccccc2CN1C(=O)c1ccccc1 (stereo unspecified)	-9	4	-8	1.8	-20	-9
COc1ccc(S(=O)(=O)NC(C)C(=O)N2CCCCCC2)cc1 (stereo unspecified)	2	12	0	-0.3	19	-10
O=C(COc1ccc(C(=O)c2ccccc2)cc1)Nc1cccnc1	-7	-1	-5	-0.4	8	-21
CCN(CC(=O)Nc1ccc(NC(C)=O)cc1)C(=O)/C=C/c1ccccc1	0	10	18	-0.1	-3	-8
CCOC(=O)C(NC(=O)c1ccccc1)=C(C)C	0	8	-4	0.1	-7	12
Cc1nn(C(C)(C)C)c(OC(=O)c2ccc(Br)o2)c1Sc1ccccc1	-1	2	-11	0.6	-16	-3
Cc1c(C(=O)NCc2ccccn2)sc2nc(-c3ccc(F)cc3)cn12	-10	-8	-29	0.4	8	-20
Cc1cccc(N2CCN(C(=O)CCn3c(=O)[nH]c4ccsc4c3=O)CC2C)c1 (stereo unspecified)	1	-2	u	0.5	-6	-4

An excerpt from above in order of SMILES length, rising.
SMILES	Six1-Eya2 inh	CtBP-E1A blk	D2 PAM	TRPML1 agonist	TRPML1 blocker	TRPV1 PAM
CCOC(=O)C(NC(=O)c1ccccc1)=C(C)C	0	8	-4	0.1	-7	12
COC(=O)[C@H](CCSC)NC(=O)Nc1ccc(OC)cc1OC	-2	-1	-9	0.0	-9	0
COc1ccc(S(=O)(=O)NC(C)C(=O)N2CCCCCC2)cc1 (stereo unspecified)	2	12	0	-0.3	19	-10
CCN(CC(=O)Nc1ccc(NC(C)=O)cc1)C(=O)/C=C/c1ccccc1	0	10	18	-0.1	-3	-8
Cc1cccc(N2CCN(C(=O)CCn3c(=O)[nH]c4ccsc4c3=O)CC2C)c1 (stereo unspecified)	1	-2	u	0.5	-6	-4

Following part:
SMILES	Six1-Eya2 inh	CtBP-E1A blk	D2 PAM	TRPML1 agonist	TRPML1 blocker	TRPV1 PAM
CCN(CC)c1nc(-c2ccccc2)cc(C(F)(F)F)c1C#N	41	29	-5	0.3	-26	x
Cc1ccc(C)c(OCCC(=O)Nc2cccc(S(=O)(=O)N3CCCCC3)c2)c1	-1	6	0	2.6	-24	18
N#Cc1ccc(/C=N/N=C(N)N)cc1	1	10	-2	0.4	30	4
C/C(=N\NC(=O)Cn1nc(C)c([N+](=O)[O-])c1C)c1ccc(Cl)s1	0	2	-3	0.2	-5	-3
CN1CCN(NC(=S)NC2CCCC2)CC1	-1	8	2	0.0	17	-3
COC(=O)c1cc(S(=O)(=O)NCC2CCN(CCc3ccc(OC)cc3)CC2)cn1C	2	-3	-32	0.0	5	-8
CCCc1nc2sc3c(c2c(=O)n1NC(=O)CCC(=O)OC)CCCC3	3	0	-4	1.5	-7	-5
CC(/C=N/n1c(-c2ccco2)n[nH]c1=S)=C\c1ccco1	-5	-1	-21	-1.0	-4	-15
COC(=O)c1ccc(C2c3[nH]c4ccccc4c3C[C@H]3C(=O)N(C4CCN(Cc5ccccc5)CC4)CC(=O)N23)cc1 (stereo partly specified)	-13	-27	-11	1.6	10	12
CCOC(=O)c1ccc(NC(=O)Nc2ccc3c4c(cccc24)C(=O)N3CC)cc1	2	2	-18	0.7	7	1
Cc1ccc(CN2CCN(/N=C/c3ccc(C)s3)CC2)cc1	-21	-2	-28	-0.7	4	2
Cc1cc(C)c(O)c(-c2cc(C(=O)NCc3ccccc3)[nH]n2)c1	-12	-2	-15	2.4	7	-14
CC1CCCCN1C(=O)c1ccc(C(=O)N2CCCCC2C)cc1 (stereo unspecified)	23	51	-3	0.4	-20	9
COC(=O)c1ccc(C(NC(=O)OCc2ccccc2)/C(C)=C/[C@@H](C)C(=O)NCc2ccc(-c3ccccc3)cc2)cc1 (stereo partly specified)	-1	-1	-9	0.3	22	-6
COC(=O)CCC(=O)OC1(C)C(=O)C2=CN(Cc3ccc(OC)cc3)C(c3ccc(OC)cc3)=CC2=C(Br)C1=O (stereo unspecified)	-18	-20	3	0.9	6	x
COC(=O)/C=C1\SC(=NC(=O)c2ccc(C)cc2)NC1=O	-10	0	-17	0.1	8	24
COC(=O)Cn1ncc(N(C)Cc2ccccc2)c(Cl)c1=O	5	2	-4	0.0	-3	-9
Cc1cc(NC(=O)CCN2CCN(Cc3ccccc3)CC2)ccc1Br	-3	-2	-14	-1.1	-10	u
C=CCn1c(SCC(=O)Nc2c(C)nn(Cc3ccccc3)c2C)nnc1C(O)c1ccccc1 (stereo unspecified)	0	-7	2	-0.4	-9	x
Cc1nn(CCCNC(=O)C2CCCO2)cc1Br (stereo unspecified)	2	-2	-5	0.5	33	-1
COc1ccccc1NC(=S)NC(NC(C)=O)C(Cl)(Cl)Cl (stereo unspecified)	3	-7	-11	0.2	-11	13
CC(O)(c1ccc(F)c(F)c1)c1nc(-c2cccc(C(F)(F)F)c2)cs1 (stereo unspecified)	5	13	-3	-0.7	x	x
COc1ccc(CC(=O)Nc2nnc(C(C)C)s2)cc1OC	10	0	1	0.7	-2	3
CCOC(=O)Nc1nc(C)c(C(=O)N(C)C)s1	2	4	-3	-0.8	5	0
CCN(CC(=O)NC)S(=O)(=O)c1ccc(Br)cc1	-3	2	-5	-0.7	6	3
COC(=O)c1c(NC(=O)CN2CCN(c3ccccc3Cl)CC2)sc(C)c1C	-16	-1	-19	0.0	-2	1
COc1ccc(NC(=O)Nc2ccc3c(c2)C(=O)N([C@H](C)CO)C[C@H](C)[C@@H](CN(C)S(=O)(=O)c2ccccc2)O3)cc1	-2	-1	0	0.8	2	x
Cc1cc(C)cc(OCC(=O)N(Cc2ccc(N(C)C)cc2)C2CCS(=O)(=O)C2)c1 (stereo unspecified)	0	-2	-4	0.2	-2	-11
COc1cc2cc(C)nc(Cc3cccc4ccccc34)c2cc1OC	-12	-6	3	1.1	21	8
COc1ccc(CCC(=O)OCC(=O)c2c(N)n(CC(C)C)c(=O)n(C)c2=O)cc1	7	4	-18	0.8	1	-3
Cc1ccc(-c2csc(N3CCC(NS(=O)(=O)c4ccc5c(c4)OCCO5)CC3)n2)cc1	-23	-20	-4	-0.5	-3	12
O=C(NC(Cc1c[nH]c2ccccc12)C(=O)O)c1ccccc1 (stereo unspecified)	1	2	0	0.0	-6	-5
CC(C)(C)OC(=O)NCC1CCC(C(=O)NC[C@H](CC(=O)O)c2ccc(Cl)cc2)CC1 (stereo partly specified)	7	-10	-1	1.1	-1	-3
Cc1ncoc1C(=O)N1CCCC(C(=O)c2ccc(C(F)(F)F)cc2)C1 (stereo unspecified)	0	9	-12	1.0	2	-1
Cc1cc(N)n(-c2ccc(C(=O)O)cc2)n1	12	21	-11	2.1	-10	-1
CC(=O)C1=CN(Cc2ccccc2)CCC1=O	-4	3	x	-0.5	31	x

Some of these compounds in order of their number in CtBP-E1A blk, highest first:
SMILES	Six1-Eya2 inh	CtBP-E1A blk	D2 PAM	TRPML1 blocker
Cc1cc(N)n(-c2ccc(C(=O)O)cc2)n1	12	21	-11	-10
Cc1ncoc1C(=O)N1CCCC(C(=O)c2ccc(C(F)(F)F)cc2)C1 (stereo unspecified)	0	9	-12	2
COC(=O)c1c(NC(=O)CN2CCN(c3ccccc3Cl)CC2)sc(C)c1C	-16	-1	-19	-2

(list continues)
SMILES	Six1-Eya2 inh	CtBP-E1A blk	D2 PAM	TRPML1 agonist	TRPML1 blocker	TRPV1 PAM
COc1ccc2c(c1)C(SCC(=O)NCc1ccccc1)CC(C)(C)O2 (stereo unspecified)	-3	-5	-2	0.1	-16	-13
Cc1cccc(-n2nnc(C(=O)NC3CCCc4ccccc43)c2N)c1 (stereo unspecified)	-5	-2	-2	-0.6	-11	x
C[C@@H]1CCCCO[C@@H](CN(C)C(=O)c2ccncc2)[C@@H](C)CN([C@H](C)CO)C(=O)c2cc(N(C)C)ccc2O1	7	-5	-1	-0.6	13	x
CCNC(=S)N1CCN(c2ccccc2OCC)CC1	3	8	-19	3.3	25	-19
